# NS1 function inh: blocks influenza NS1 protein function; Potency, µM (series often up to 46.1 µM), for inactives: at the highest dose activity, positive = more growth; hit rate 0.4% among 270,000; S. cerevisiae slowed by influenza A NS1, growth recovery by OD600; note: actives are rising curves; nearly all actives have a fitted effect of over 50% in size
#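 OD600 was taken as the measure of yeast growth restored by compound in an NS1-expressing S. cerevisiae strain. Cells had been washed out of glucose medium and diluted 1:100 into galactose -URA medium, pH 6.0.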
# Cruzain inh noDet: inhibitors of Trypanosoma cruzi cruzain without detergent | purified cruzain, Z-FR-AMC fluorescence, no detergent | Potency, µM, for inactives: max response, negative = inhibition, most hits filed as inhibitors | hit rate 2.3% among 200,000 | AID 1476; active = well fitted curve in the direction sought with a large enough effect; inconclusive = small, poorly fitted or top-dose-only effect, or another doubt; inactive = no such curve, though single readings can be large; an effect the other way counts as inactive or inconclusive;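 note: plate controls were enzyme without inhibitor for no effect and buffer without enzyme for full effect; nearly all actives have a fitted effect of over 40% in size; top concentration of the series not given in the record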
# Target sequence (P25779 123-467 limits assumed): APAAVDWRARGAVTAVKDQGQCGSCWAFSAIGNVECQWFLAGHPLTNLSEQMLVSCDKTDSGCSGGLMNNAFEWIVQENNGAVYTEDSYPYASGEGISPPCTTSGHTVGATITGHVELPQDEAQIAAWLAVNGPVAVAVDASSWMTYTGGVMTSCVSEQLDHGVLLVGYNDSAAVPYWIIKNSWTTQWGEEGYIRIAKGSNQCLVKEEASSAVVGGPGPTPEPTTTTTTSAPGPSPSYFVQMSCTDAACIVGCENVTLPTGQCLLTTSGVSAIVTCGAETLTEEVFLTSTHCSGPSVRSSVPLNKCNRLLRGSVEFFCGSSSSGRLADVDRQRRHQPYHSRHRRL
#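 Purified cruzain at 1.5 nM, pre-incubated 15 min with compound at room temperature in 100 mM sodium acetate pH 5.5, 5 mM DTT, 0.00005% Triton X-100. Reaction started with 2 uM Z-FR-AMC; AMC fluorescence increase over 60 s gives rate.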
# Cruzain Triton: inhibitors of Trypanosoma cruzi cruzain with detergent; P25779; purified cruzain, Z-FR-AMC fluorescence, 0.01% Triton; Potency, µM, inactives show max response, negative = inhibition, usual class: inhibitors; hit rate 0.43% among 200,000; AID 1478; active = well fitted curve in the direction sought with a large enough effect; inconclusive = small, poorly fitted or top-dose-only effect, or another doubt; inactive = no such curve, though single readings can be large; an effect the other way counts as inactive or inconclusive;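 note: plate controls were neutral wells for no effect and buffer without enzyme for full effect; nearly all actives have a fitted effect of over 40% in size; top concentration of the series not given in the record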
#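 Cysteine protease activity tested under reducing, mildly acidic conditions (100 mM sodium acetate pH 5.5, 5 mM DTT) plus 0.01% Triton X-100. Cruzain 1.5 nM; substrate Z-FR-AMC 2 uM; 15 min compound preincubation at room temperature.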
# Marburg entry inh: Marburg virus entry inhibition; Potency, µM (titrated, usually from 37.8 µM), for the others: top-dose activity change, negative = inhibition, hits mostly inhibitors; AID 540276; hit rate 1.8% among 300,000; Marburg virus pseudotyped entry inhibition, cell reporter; control for the full effect not named in the record; about a third of the inactives were read at about 46 µM; active = well fitted inhibition curve with a large enough effect; inconclusive = small, poorly fitted or top-dose-only effect, or effect the other way; inactive = flat fitted curve, though single readings scatter; tested in HEK293 cells; about a fifth of its hits are not listed in these tables; note: % is set by controls: 0 for no effect and ±100 for the full control effect; luciferase read-out
# LASV entry inh: inhibitors of Lassa virus binding or cell entry; Lassa virus pseudotype entry inhibition, cell reporter; control for the full effect not named in the record; Potency, µM (series often up to 37.9 µM), for inactives: top-dose activity change, negative = inhibition, most hits filed as inhibitors; hit rate 1.2% among 300,000; AID 540256; active means well fitted inhibition curve with a large enough effect; inconclusive means small, poorly fitted or top-dose-only effect, or effect the other way; inactive means flat fitted curve, though single readings scatter; tested in HEK293 cells; note: % is set by controls: 0 for no effect and ±100 for the full control effect; nearly all actives have a fitted effect of over 50% in size; luciferase read-out
# SARS PLP yeast: SARS-CoV PLP inhibition in yeast; hit rate 0.19% among 330,000; AID 485353; S. cerevisiae expressing SARS-CoV PLpro, growth rescue; control for the full effect not named in the record; Potency, µM (doses to about 32.9 µM), inactives show top-dose activity, positive = growth rescue; note: 0% is about no effect; nearly all actives have a fitted effect of over 55% in size; growth read by luminescence after 48 h
# StopGo reporter: FMDV 2A StopGo reporter, luciferase signal; human cells with a luciferase reporter of 2A StopGo recoding; control for the full effect not named in the record; Potency, µM (series often up to 57.9 µM), for the others: at the highest dose signal change, negative = less light; hit rate 1.2% among 410,000; AID 1159524; active = well fitted falling curve with a large enough effect; inconclusive = small, poorly fitted or top-dose-only effect; inactive = no such curve, though single readings can be large or run the other way; tested in HEK293T cells; note: % is set by controls: 0 for no effect and ±100 for the full control effect; nearly all actives have a fitted effect of over 45% in size; luciferase light after 4 h
# RE007 growth inh: less growth of the S. pombe RE007 Vpr strain. Potency, µM (doses to about 92.2 µM), without a hit: at the top dose activity change, negative = less growth. S. pombe RE007 Vpr strain, BacTiter-Glo ATP luminescence, 24 h; control for the full effect not named in the record. hit rate 0.21% among 360,000. AID 651644; active = well fitted falling curve with a large enough effect; inconclusive = small, poorly fitted or top-dose-only effect; inactive = no such curve, though single readings can be large or run the other way;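 note: % is set by controls: 0 for no effect and ±100 for the full control effect; nearly all actives have a fitted effect of over 50% in size; the assay follows cell death caused by Vpr and the record does not say whether a fall means rescue or toxicity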
#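 Fission yeast strain RE007, carrying one chromosomally integrated HIV-1 vpr copy, was seeded at OD 0.01 in PMG+AL medium with 23 nL pinned compound. After 24 h at 30 °C and 99% humidity, viability was read by BacTiter-Glo luminescence.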
# Active calls of the source: *; ? = inconclusive; · = no result given; & = joins results of further samples; [ ] = remark or other dose. Unless noted, calls come from the whole dose curve; as a rule, active means well fitted rising curve with a large enough effect; inconclusive means small, poorly fitted or top-dose-only effect; inactive means no such curve, though single readings can be large or run the other way. Potency is the fitted concentration of half-maximal effect.
SMILES,NS1 function inh,Cruzain inh noDet,Cruzain Triton,Marburg entry inh,LASV entry inh,SARS PLP yeast,StopGo reporter,RE007 growth inh
CCOC(=O)C1CCN(C(=O)CC(C)S(=O)(=O)c2ccc3c(c2)NC(=O)CO3)CC1 (stereo not given),-15%,·,·,1%[46.1 µM],15%[46.1 µM],-1%,-21%,-5%
COc1cccc(NC(=S)NC(=O)c2c(Cl)c(C)nn2C)c1,21%,-10%,-3.7%,-2%,6%,8%,17%,-13%
Cc1cc(OCCN2CCCC2)ccc1[N+](=O)[O-],6%,-18%,-5.1%,?,14%,-6%,1%,-9%
O=C(NCC1CC1)C1(S(=O)(=O)c2ccccc2)CC=CC1,-1%,·,·,·,·,0%,7%,2%
COc1cccc(CN2CCC(C(=O)Nc3ccc(Oc4cccnc4)cc3)CC2)c1,2%,·,·,?,-24%,-1%,?,2%
CCOc1ccc(S(=O)(=O)n2c([N+](=O)[O-])cnc2C)c(C)c1C,-15%,·,·,·,·,3%,-9%,16%
COCCNC(=O)c1sc2nc(-c3ccccc3)cn2c1C,-7%,-9%,1.3%,34%,23%,3%,25%,9%
O=C(c1ccc(-c2ccccc2)cc1)c1ccccc1C(=O)N1CCOCC1,-55%,?,-1.0%,21%,-1%,-9%,-6%,8%
Cc1cccc(-c2c3c(=O)n(C)c(=O)n(C)c3cn2C(C)C)c1,-4%,-2%,-2.1%,-18%,-26%,-2%,-16%,7%
COC(=O)c1c(NC(=O)/C(C#N)=C/c2ccccc2)sc2c1CCC2,·,-15%,-1.7%,·,3%[46.1 µM],·,-11%,·
COc1ccc(CCN2C(=O)NC(NS(=O)(=O)c3ccc(N)cc3)(C(F)(F)F)C2=O)cc1OC (stereo not given),8%,4%,-4.6%,1%,6%,0%,-10%,9%
Cc1ccc(NC(=O)CN2C(=O)NC3(CCC(C)CC3)C2=O)c(Cl)c1 (stereo not given),7%,-14%,3.3%,11%,·,0%,-23%,0%
CCc1ccc(C(=O)c2oc3nc(C)cc(C)c3c2N)cc1,-5%,5%,-13%,-5%,-8%,-1%,14%,5%
Cc1cc(F)ccc1NCc1cccnc1,-6%,1%,3.6%,-26%,?,0%,-10%,-21%
O=C(Cc1ccc([N+](=O)[O-])cc1)N1CCCCCC1,·,·,·,3%[46.1 µM],2%,4%,24%,-6%
CC(C)(C)SCCNC(=O)/C=C/c1ccc([N+](=O)[O-])cc1,4%,-23%,-8.2%,2%,-7%,-14%,10%,-4%
COc1cc(C=Nc2cccc([N+](=O)[O-])c2C)ccc1OC(C)=O,-1%,7%,-1.8%,?,7%,10%,0%,·
Cn1c(N)c(C(=O)COC(=O)c2ccc(-c3ccccc3)cc2)c(=O)n(C)c1=O,·,·,·,22%[46.1 µM],-1%[46.1 µM],1%,?,6%
Cc1cccc(C)c1NC(=O)CSc1nnc(-c2ccoc2C)n1C,3%,15%,0.0%,2%[46.1 µM],-2%,1%,-20%,-18%
CCc1ccc(NC(=O)c2cc3c(=O)n(Cc4cccs4)ccc3nc2C)cc1,·,?,0.6%,·,?,·,-17%,·
CCCCOc1ccc(C(=O)N2CC(C)OC(C)C2)cc1 (stereo not given),0%,17%,3.9%,-19%,-8%,-3%,-4%,10%
Cc1ccc(NC(=O)c2ccc(F)c(S(=O)(=O)N3CCOCC3)c2)cc1F,-7%,-3%,-6.8%,-13%,-54%[14.3 µM],5%,?,-2%
Cc1cc(C)n2ncc(C(=O)NCc3ccc(Cl)cc3)c2n1,-76%,12%,2.4%,-7%,-38%,-22%,8%,-1%
CC(C)C(=O)c1cn(Cc2ccc(C#N)cc2)c2ccccc12,-1%,-5%,-9.9%,?,55%,-25%,-14%,29%
Cc1cc(C)c[n+](-c2nc3ccccc3nc2[N-]S(=O)(=O)c2ccc(Cl)cc2)c1,0%,?,-2.0%,-2%,-6%,-14%,38%[activator],0%

# Quoted at random: 5 records from the list
SMILES,NS1 function inh,Cruzain inh noDet,Cruzain Triton,Marburg entry inh,LASV entry inh,SARS PLP yeast,StopGo reporter,RE007 growth inh
Cc1cc(OCCN2CCCC2)ccc1[N+](=O)[O-],6%,-18%,-5.1%,?,14%,-6%,1%,-9%
O=C(c1ccc(-c2ccccc2)cc1)c1ccccc1C(=O)N1CCOCC1,-55%,?,-1.0%,21%,-1%,-9%,-6%,8%
Cn1c(N)c(C(=O)COC(=O)c2ccc(-c3ccccc3)cc2)c(=O)n(C)c1=O,·,·,·,22%[46.1 µM],-1%[46.1 µM],1%,?,6%
COc1cccc(NC(=S)NC(=O)c2c(Cl)c(C)nn2C)c1,21%,-10%,-3.7%,-2%,6%,8%,17%,-13%
CC(C)C(=O)c1cn(Cc2ccc(C#N)cc2)c2ccccc12,-1%,-5%,-9.9%,?,55%,-25%,-14%,29%

# Next part.
SMILES,NS1 function inh,Cruzain inh noDet,Cruzain Triton,Marburg entry inh,LASV entry inh,SARS PLP yeast,StopGo reporter,RE007 growth inh
CCOC(=O)c1ccc(NC(=O)CCS(=O)(=O)c2ccc(Br)s2)cc1,-5%,-10%,-8.3%,18%,2%,-2%,-24%,4%
CCOc1ccc(NC(=O)CC2C(=O)N(c3ccccc3)C(=O)N2Cc2ccco2)cc1 (stereo not given),-4%,·,·,?,?,-1%,-15%,8%
CCOc1ccc(CN2CCNC(=O)C2CC(=O)NC2CCCCCC2)cc1 (stereo not given),24%,·,·,0%[46.1 µM],19%[46.1 µM],-1%,6%,12%
COc1ccc(/C=C2\CCC(C3CCCC3)C2=O)cc1 (stereo not given),0%,·,·,?,?,0%,-4%,0%
COc1ccc2c(c1)CC/C(=C\C=C\c1ccccc1)C2=O,-27%,?,-9.2%,?,-40%,3%,0%,-13%
COc1ccc2nc(Nc3nc(CSc4nnc(C)s4)cc(=O)[nH]3)nc(C)c2c1,15%,?,-2.2%,17%,11%,7%,·,·
COc1cc(/C=N/NC(=O)c2ccccc2)ccc1OS(=O)(=O)c1ccccc1,16%,-10%,-11%,9.2µM*,?,20%,-19%,-5%
Cc1ccc(S(=O)(=O)Nc2c(C)cc(C)nc2Cl)cc1,-3%,·,·,·,·,0%,0%,-10%
Cc1cc(C)c(NC(=O)CN2CCN(C)CC2)c(C)c1,-6%,10%,1.3%,·,·,2%,16%,-3%
CCc1ccccc1NC(=O)Cn1nnc(C(=O)NCc2cccs2)c1N,·,20µM*,-0.7%,?,-5%&-25%[46.1 µM],0%,4%&-9%,6%
CCOc1ccc(-c2cnc(NCc3ccc(C(F)(F)F)cc3)n2C)cc1,·,-1%,-2.9%,?,?,·,-27%,·
O=c1c2cc3ccccc3n2cnn1Cc1ccccc1F,-22%,-15%,-7.3%,?,-24%,-7%,-16%,4%
COCCC(=O)N1CCC(Oc2ccc(C(=O)N3CCCCC3COC)cc2)CC1 (stereo not given),-1%,·,·,·,·,6%,6%,1%
COC(=O)c1cccc(S(=O)(=O)N2CCN(c3nc4ccccc4s3)CC2)c1,-2%,9%,1.4%,-23%,0%,1%,·,-6%
O=C(NC1CCCCC1c1ccccc1)c1ccccc1 (stereo not given),·,·,·,13%,?,·,-19%,6%
CCOC(=O)c1cccc(NC(=O)CSc2nncn2-c2ccccn2)c1,17%,·,·,-27%[46.1 µM],·,6%,-10%,10%
COc1ccc(C2C=C(C34CC5CC(CC(C5)C3)C4)NC(=S)N2)cc1OC (stereo not given),19%,-13%,-8.1%,?,?,14µM*,0%,-17%
COc1cc(/C=N/NC(=O)c2cnccn2)cc(OC)c1OC,2%,-5%,-9.5%,23%,1%,6%,2%,3%
CC(=O)c1sc(NC(=O)C2CCN(C(=O)c3ccccc3C)CC2)nc1-c1ccccc1,·,·,·,?,-7%,1%,?,3%
O=C1c2cccc(OCC(=O)N3CCCc4ccccc43)c2CCN1Cc1ccccc1,-4%,1%,-6.3%,?,5%,-17%,-12%,15%
O=C(Nc1cccc(Cl)c1)c1cnccn1,-36%,·,·,7%,8%,-9%,62%[activator],-6%
CCOC(=O)c1cnn(-c2ccc(C(=O)Nc3cccc(C(C)=O)c3)cc2)c1N,·,?,2.7%,·,7%[46.1 µM],·,-19%,·
O=C(COC(=O)CCSc1ccccc1Cl)NCc1ccco1,-46%,·,·,22%[46.1 µM],4%,1%,-4%,7%
COc1ccc(C(=O)N/C(=C\c2cc(OC)c(OC)cc2[N+](=O)[O-])C(=O)NCCO)cc1,3%,·,·,11%[46.1 µM],13%,0%,3%,15%
O=C(O/N=C1\CCCc2ccccc21)C1CC1,·,·,·,1%,-1%,-1%,-18%,-4%
# Continuation:
SMILES,NS1 function inh,Cruzain inh noDet,Cruzain Triton,Marburg entry inh,LASV entry inh,SARS PLP yeast,StopGo reporter,RE007 growth inh
Cc1noc(C)c1S(=O)(=O)N1CCCC(C(=O)Nc2cccnc2)C1 (stereo not given),1%,13%,-0.8%,-19%,-12%,0%,0%,-1%
O=C(COC(=O)/C=C/c1ccc(S(=O)(=O)N2CCOCC2)cc1)NCc1ccc(Cl)cc1,·,·,·,?,?,4%,-12%,2%
CC(=O)N1CCc2cc(Br)cc(S(=O)(=O)NCCN3CCCCC3C)c21 (stereo not given),-2%,2%,4.5%,-6%,12%,-5%,22%,-8%
Cc1cccc(N2C(=O)c3ccc(C(=O)Nc4ccccn4)cc3C2=O)c1,-8%,·,·,6%[46.1 µM],23%[46.1 µM],-3%,10%,-9%
CCCCN(C(=O)/C=C/c1ccco1)c1c(N)n(CC(C)C)c(=O)[nH]c1=O,·,·,·,6%[46.1 µM],-4%,-1%,-4%,0%
CCOc1ccc(NC(=S)N(CCN2CCOCC2)Cc2cc3cc4c(cc3[nH]c2=O)OCCO4)cc1,-2%,·,·,?,0%[46.1 µM],0%,4%,-9%
C=CCN(CC=C)CC(O)CN(c1cc([N+](=O)[O-])ccc1OC)S(=O)(=O)c1ccccc1 (stereo not given),-1%,2%,-6.7%,?,1%,-3%,39%[activator],-8%

# Screening results deposited in PubChem by National Center for Advancing Translational Sciences (NCATS).
